Env fusion inh: HIV envelope-mediated fusion inhibition. inhibition, % at 12.3 µM. AID 651610. 360,000 compounds, 1.1% hits. HeLa-JRFL Env/CEM21 cell fusion, luciferase;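 active = mean replicate inhibition score of at least 50 and every replicate individually at or above 50; inconclusive = only one of the two criteria met; inactive = mean below 50 and not all replicates reaching 50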;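 also: 0% = plate neutral controls and 100% = maraviroc near 300 nM; one replicate is shown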
An asterisk follows results filed as active; ? = inconclusive; [ ] = dose if it differs, or a comment. Only part of the results is shown; rates above refer to the full screens.

SMILES | Env fusion inh
CN1CCN(C(=O)C[C@@H]2C=C[C@@H](NS(=O)(=O)c3cccc(F)c3)[C@H](CO)O2)CC1 | -6.1[16.7 µM]
COCCNC(=O)C[C@H]1CC[C@H]2[C@@H](COC[C@H](O)CN2Cc2cccc(-c3ccncc3)c2)O1 | -4.4[16.7 µM]
CCCN1C[C@@H](C)[C@@H](OC)CN(C)C(=O)c2cc(NS(=O)(=O)c3ccccc3)ccc2OC[C@@H]1C | 25.5[16.7 µM]
CCS(=O)(=O)Nc1ccc2c(c1)C(=O)N(C)[C@H]1CC[C@@H](CC(=O)NCCOC)O[C@@H]1CO2 | 3.4[16.7 µM]
C[C@@H](CN1C2=NC[C@@H](Cc3ccccc3)N2C[C@H]1Cc1ccc(O)cc1)NC(=O)CCC1CCCCC1 | -12.9
O=C(NC1CCC1)[C@@H]1[C@@H](CO)[C@@H]2Cn3c(ccc(/C=C/c4ccccc4)c3=O)[C@@H]2N1Cc1cncnc1 | 15.3[16.7 µM]
C[C@@H]1CN([C@@H](C)CO)C(=O)c2cccc(NC(=O)Nc3ccc(F)cc3)c2O[C@H]1CN(C)S(=O)(=O)c1ccc(F)cc1 | 6.6[16.7 µM]
C[C@H](CO)N1C[C@H](C)[C@@H](CN(C)C(=O)NC2CCCCC2)OCc2ccccc2-c2ccccc2C1=O | 29.8[16.7 µM]
CN1C(=O)c2cc(NC(=O)c3ccccc3Cl)ccc2OC[C@@H]2O[C@H](CC(=O)NCC(F)(F)F)CC[C@H]21 | 10.0[16.7 µM]
O=[N+]([O-])c1nccn1CC(O)CCN1CCOCC1 (stereo not given) | -8.8
CC(C)NC(=O)N[C@@H]1CC[C@H](CCN)O[C@H]1CO | -13.5[16.7 µM]
C[C@H]1CN([C@@H](C)CO)C(=O)c2cccc(NC(=O)Nc3ccc(F)cc3)c2O[C@H]1CN(C)S(=O)(=O)c1cn(C)cn1 | -16.1[16.7 µM]
CC(C)NC(=O)Nc1ccc2c(c1)C(=O)N([C@@H](C)CO)C[C@@H](C)[C@H](CN(C)C(=O)Cc1ccccc1)OCCCC[C@@H](C)O2 | -40.0[16.7 µM]
CC(=O)O[C@H]1C=C[C@@H](C#Cc2ccc(C(C)(C)C)cc2)O[C@@H]1COC(=O)Nc1ccccc1 | -18.5
CN1CCN(C(=O)C[C@@H]2C[C@@H]3c4cc(NS(C)(=O)=O)ccc4O[C@@H]3[C@H](CO)O2)CC1 | -3.7[16.7 µM]
CC=Cc1ccc2n(c1=O)C[C@@H]1[C@@H](CO)[C@H](C(=O)N3CCc4ccccc4C3)[C@H]2N1CC (mixture of isomers) | -12.1[16.7 µM]
CO[C@@H]1CN(C)C(=O)c2ccc(NS(=O)(=O)c3cccc(Cl)c3)cc2OC[C@@H](C)NC[C@@H]1C | -5.1[16.7 µM]
CCOC(=O)C1=CCN(S(=O)(=O)c2ccccc2Br)C1c1ccc(Cl)cc1 (stereo not given) | 0.3
C[C@H]1CN([C@@H](C)CO)C(=O)c2ccccc2-c2ccccc2CO[C@@H]1CN(C)Cc1cccc(C(=O)O)c1 | 7.2[16.7 µM]
CC(C)NC(=O)Nc1ccc2c(c1)C(=O)N([C@@H](C)CO)C[C@@H](C)[C@@H](CN(C)Cc1ccncc1)OCCCC[C@H](C)O2 | 0.9[16.7 µM]
C=CCCC1CN(Cc2ccc(OC)cc2)S(=O)(=O)c2c(F)cccc2O1 (stereo not given) | -2.4
CC(C)NC(=O)Nc1ccc2c(c1)C(=O)N([C@@H](C)CO)C[C@H](C)[C@@H](CN(C)C(=O)NC(C)C)OCCCC[C@H](C)O2 | 6.5[16.7 µM]
COc1cccc(CNC(=O)C[C@H]2C=C[C@H](NC(=O)C3CCC3)[C@H](CO)O2)c1 | -11.9[16.7 µM]
CO[C@@H]1CC[C@@H]2CCOc3ccc(C#N)cc3C(=O)N(C)C[C@@H](C)C(=O)N(C)C[C@@H]1O2 | -5.3[16.7 µM]
Cc1ccc2nc(CN(C)C(=O)[C@H](CCc3ccccc3)NC(=O)[C@H]3O[C@@H](n4cnc5c(N)ncnc54)[C@H](O)[C@@H]3O)[nH]c2c1 | -0.7
C[C@H]1CN([C@@H](C)CO)C(=O)Cc2cc(NC(=O)CCN3CCOCC3)ccc2O[C@H]1CN(C)Cc1ccc(-c2ccccc2)cc1 | 5.5[16.7 µM]
CN1C(=O)c2cc(NC(=O)Nc3ccccc3)ccc2OC[C@H]2O[C@@H](CC(=O)O)CC[C@H]21 | -6.2[16.7 µM]
COc1ccc(S(=O)(=O)Nc2ccc3c(c2)[C@H]2C[C@H](CC(=O)N(C)C)O[C@@H](CO)[C@H]2O3)cc1 | -6.6[16.7 µM]
Cc1noc(C)c1NC(=O)Nc1ccc2c(c1)CC(=O)N([C@@H](C)CO)C[C@H](C)[C@@H](CN(C)Cc1ccc(C(F)(F)F)cc1)O2 | 9.1[16.7 µM]
O=C(c1ccncc1)N1CC2(C1)[C@@H](c1ccccc1)[C@@H](CO)N2CC1CC1 | -20.8[16.7 µM]
COC(=O)C[C@H]1C[C@@H]2c3cc(NS(C)(=O)=O)ccc3O[C@@H]2[C@H](CO)O1 | 0.6[16.7 µM]
O=C(Nc1ccc(Nc2cccnc2)cc1)c1c[nH]c2ccccc12 | -2.1
C[C@@H]1CN([C@@H](C)CO)C(=O)c2c(c3ccccc3n2C)-c2ccccc2CO[C@@H]1CN(C)C(=O)Nc1ccc2c(c1)OCO2 | -14.0[16.7 µM]
CC(C)(C)[S@@](=O)N1Cc2cc(C(=O)N3CCc4ccccc4C3)nc(-c3cccc(-c4cncnc4)c3)c2[C@H]1CCO | -1.6[16.7 µM]
CO[C@@H]1CN(C)C(=O)c2ccc(NS(=O)(=O)c3ccccc3)cc2OC[C@@H](C)N(Cc2cccnc2)C[C@H]1C | -40.5[16.7 µM]
CC(C)COC(=O)N(C)C[C@@H]1OCc2ccccc2-c2ccccc2C(=O)N([C@H](C)CO)C[C@H]1C | -22.9[16.7 µM]
CN1[C@@H]2c3ccc(-c4cccc(F)c4)c(=O)n3C[C@@H]2[C@@H](CO)[C@@H]1C(=O)NCc1ccccn1 | 6.6[16.7 µM]
CC(C)NC(=O)N(C)C[C@H]1Oc2ccc(NC(=O)Cc3cn(C)c4ccccc34)cc2CC(=O)N([C@@H](C)CO)C[C@H]1C | -0.1[16.7 µM]
CCOC1=C2CN(S(=O)(=O)c3ccccc3)[C@@H](c3ccccc3)C[C@H]2[C@H]2C(=O)N(c3ccccc3)C(=O)[C@H]2C1 | -50.3
CCCNC(=O)C[C@H]1C[C@@H]2c3cc(NC(=O)Nc4ccccc4F)ccc3O[C@@H]2[C@H](CO)O1 | -12.2[16.7 µM]
C[C@@H]1CN([C@H](C)CO)C(=O)c2cc(NC(=O)Cc3cn(C)c4ccccc34)ccc2O[C@H]1CN(C)Cc1ccc(-c2ccccc2)cc1 | -0.5[16.7 µM]
CCCN1[C@@H]2c3ccc(-c4cccc(F)c4)c(=O)n3C[C@H]1[C@H](CO)[C@H]2C(=O)NCC1CC1 | 4.9[16.7 µM]
CO[C@@H](C(=O)N(C)C[C@@H]1OCc2ccccc2-c2c(n(C)c3ccccc23)C(=O)N([C@@H](C)CO)C[C@@H]1C)c1ccccc1 | ?
CO[C@H]1CN(C)C(=O)c2cc(NS(C)(=O)=O)ccc2OC[C@@H](C)N(C)C[C@@H]1C | -1.0[16.7 µM]
CO[C@H]1CN(C)C(=O)c2ccc(NC(=O)C3CC3)cc2OC[C@@H](C)N(Cc2cc(F)ccc2F)C[C@H]1C | -0.2[16.7 µM]
C=CCCC[C@H]1OC(=O)[C@H](C)NC(=O)[C@H](C(C)C)NC(=O)[C@@H]2CCCN2C(=O)[C@H](Cc2ccccc2)OC(=O)[C@@H](C(C)C)N(C)C(=O)[C@H](C(C)C)NC(=O)C1(C)C | -17.4
C[C@@H]1CN([C@H](C)CO)C(=O)c2cc(NC(=O)C3CC3)ccc2O[C@H]1CN(C)Cc1ccc(C(=O)O)cc1 | -8.6[16.7 µM]
CO[C@H]1CN(C)C(=O)c2cc(NC(=O)C3CCC3)ccc2OC[C@H](C)N(C)C[C@@H]1C | 11.6[16.7 µM]
CO[C@@H]1CN(C)C(=O)c2cc(NC(=O)Nc3ccccc3Cl)ccc2OC[C@@H](C)N(S(C)(=O)=O)C[C@H]1C | 14.9[16.7 µM]
CN1C(=O)c2cc(NC(=O)Cc3cccs3)ccc2OC[C@H]2O[C@@H](CC(=O)NCc3ccc(-c4ccccc4)cc3)CC[C@H]21 | -28.3[16.7 µM]
COc1ccccc1NC(=O)N[C@@H]1CC[C@@H](CCNS(=O)(=O)c2ccccc2)O[C@@H]1CO | -2.2[16.7 µM]
CC(C)OC(=O)N(C)C[C@H]1OCc2ccccc2-c2ccccc2C(=O)N([C@H](C)CO)C[C@@H]1C | 7.4[16.7 µM]
CCNC(=O)c1cc2c(c(-c3cccc(-c4ccncc4)c3)n1)[C@H](CCO)N(S(=O)(=O)CC)C2 | -345.1[16.7 µM]
COC(=O)C1=C(C)N(Cc2cccc(C(F)(F)F)c2)C(=NCc2cc(OC)c(OC)c(OC)c2)NC1c1ccc(F)cc1 (stereo not given) | 9.3
COC(=O)C1=C(C)N(C)C(=NCc2ccccc2)NC1c1ccccc1C(F)(F)F (stereo not given) | -35.8
CN1CCN(C(=O)C[C@@H]2C[C@@H]3c4cc(NC(=O)C5CCC5)ccc4O[C@@H]3[C@@H](CO)O2)CC1 | -12.4[16.7 µM]
COc1ccc(S(=O)(=O)N(C)C[C@@H]2OCCCC[C@H](C)Oc3ccc(NS(=O)(=O)c4cn(C)cn4)cc3C(=O)N([C@@H](C)CO)C[C@@H]2C)cc1 | 6.5[16.7 µM]
O=C(N[C@@H](Cc1cccnc1)C(=O)N1CCC[C@H]1C(=O)NCCc1ccccc1Cl)C1CC1 | 9.7
CCCC(=O)OC[C@H]1CN(C2CCCC2)S(=O)(=O)c2c(Oc3ccc(F)cc3OC)cccc2O1 | -12.0
COCC(=O)N1C[C@H](C)[C@@H](OC)CN(C)C(=O)c2ccc(NC(=O)c3cnccn3)cc2OC[C@H]1C | -4.9[16.7 µM]
Further results:
SMILES | Env fusion inh
COc1ccccc1S(=O)(=O)Nc1ccc2c(c1)C(=O)N(C)C[C@H](OC)[C@H](C)CN[C@H](C)CO2 | -20.4[16.7 µM]
COc1ccccc1CNC(=O)C[C@@H]1C[C@@H]2c3cc(NC(=O)Cc4ccncc4)ccc3O[C@@H]2[C@H](CO)O1 | -3.5[16.7 µM]
C[C@@H]1CN([C@@H](C)CO)C(=O)c2cc(NC(=O)CCCN(C)C)ccc2O[C@@H]1CN(C)Cc1ccc(C(=O)O)cc1 | -13.4[16.7 µM]
Cc1cc(Br)cn2c(Cc3ccccc3C(F)(F)F)c(-c3ccc(F)cc3)nc12 | 5.0
O=C1c2ccccc2/C(=C\c2ccc(O[C@@H]3CCCCO3)cc2)N1c1ccccc1 | -13.5
Oc1cccc(N2CCN(c3cccc(O)c3)CC2)c1 | -39.2
COc1ccc(NC(=O)Nc2ccc3c(c2)C(=O)N(C)C[C@@H](OC)[C@@H](C)CN[C@H](C)CO3)cc1 | 7.3[16.7 µM]
C[C@H]1CN([C@@H](C)CO)C(=O)c2cc(NS(=O)(=O)c3ccc(Cl)cc3)ccc2O[C@@H]1CN(C)C(=O)Nc1ccc(C(F)(F)F)cc1 | -16.6[16.7 µM]
O=C([C@H]1[C@H](CO)[C@H]2Cn3c(ccc(-c4ccccc4)c3=O)[C@@H]1N2)N1CCCCC1 | 7.7[16.7 µM]
CN1C(=O)c2cc(NC(=O)Cc3cccs3)ccc2OC[C@@H]2O[C@H](CC(=O)NCCc3ccncc3)CC[C@@H]21 | -1.6[16.7 µM]
COc1cccc(CNC(=O)C[C@H]2CC[C@H]3[C@@H](COc4ccc(NS(=O)(=O)c5ccccc5F)cc4C(=O)N3C)O2)c1 | -1.4[16.7 µM]
O=C(C[C@@H]1CC[C@H](NS(=O)(=O)c2ccc(F)cc2)[C@H](CO)O1)NCc1ccc(Cl)c(Cl)c1 | -7.7[16.7 µM]

Ordered by SMILES length (rising): some entries from above.
SMILES | Env fusion inh
O=C(c1ccncc1)N1CC2(C1)[C@@H](c1ccccc1)[C@@H](CO)N2CC1CC1 | -20.8[16.7 µM]
CO[C@H]1CN(C)C(=O)c2cc(NC(=O)C3CCC3)ccc2OC[C@H](C)N(C)C[C@@H]1C | 11.6[16.7 µM]
O=C([C@H]1[C@H](CO)[C@H]2Cn3c(ccc(-c4ccccc4)c3=O)[C@@H]1N2)N1CCCCC1 | 7.7[16.7 µM]
CC(C)COC(=O)N(C)C[C@@H]1OCc2ccccc2-c2ccccc2C(=O)N([C@H](C)CO)C[C@H]1C | -22.9[16.7 µM]
CO[C@@H]1CN(C)C(=O)c2ccc(NS(=O)(=O)c3cccc(Cl)c3)cc2OC[C@@H](C)NC[C@@H]1C | -5.1[16.7 µM]
CN1CCN(C(=O)C[C@@H]2C[C@@H]3c4cc(NC(=O)C5CCC5)ccc4O[C@@H]3[C@@H](CO)O2)CC1 | -12.4[16.7 µM]
C[C@@H]1CN([C@@H](C)CO)C(=O)c2cc(NC(=O)CCCN(C)C)ccc2O[C@@H]1CN(C)Cc1ccc(C(=O)O)cc1 | -13.4[16.7 µM]
C[C@H]1CN([C@@H](C)CO)C(=O)c2cccc(NC(=O)Nc3ccc(F)cc3)c2O[C@H]1CN(C)S(=O)(=O)c1cn(C)cn1 | -16.1[16.7 µM]
C[C@@H]1CN([C@H](C)CO)C(=O)c2cc(NC(=O)Cc3cn(C)c4ccccc34)ccc2O[C@H]1CN(C)Cc1ccc(-c2ccccc2)cc1 | -0.5[16.7 µM]

Next section
SMILES | Env fusion inh
CN1C(=O)c2cc(NC(=O)C3CCCCC3)ccc2OC[C@@H]2O[C@@H](CC(=O)NCc3ccccc3F)CC[C@@H]21 | 1.9[16.7 µM]
O=C(Nc1ccc2c(c1)[C@H]1C[C@@H](CC(=O)N3CCc4ccccc4C3)O[C@H](CO)[C@H]1O2)c1cccnc1 | -1.8[16.7 µM]
COC(=O)c1cn(CCCNC(=O)Nc2ccccc2)nn1 | -3.2[16.7 µM]
COc1ccccc1S(=O)(=O)N[C@H]1C=C[C@@H](CC(=O)N2CCCCC2)O[C@H]1CO | -7.4[16.7 µM]
CC(C)NC(=O)N(C)C[C@@H]1OCCCC[C@@H](C)Oc2ccc(NC(=O)c3ccccc3)cc2C(=O)N([C@@H](C)CO)C[C@@H]1C | 6.2[16.7 µM]

Screening results from PubChem.
